From PubChem BioAssay
RE007 growth inh: less growth of the S. pombe RE007 Vpr strain | actives 0.21% (n = 360,000) | S. pombe RE007 Vpr strain, BacTiter-Glo ATP luminescence, 24 h; control for the full effect not named in the record | AID 651644 | Potency, µM (series often up to 92.2 µM), inactives show at the highest dose activity change, negative = less growth; active = well fitted falling curve with a large enough effect; inconclusive = small, poorly fitted or top-dose-only effect; inactive = no such curve, though single readings can be large or run the other way;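 also: % is scaled to controls: 0 for no effect and ±100 for the full control effect; nearly all actives have a fitted effect of over 50% in size; the assay follows cell death caused by Vpr and the record does not say whether a fall means rescue or toxicity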
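Fission yeast RE007 carrying one integrated HIV-1 vpr copy, seeded at OD 0.01 in PMG+AL medium with 23 nL pinned compound. Grown 24 h at 30 degrees; viability read by BacTiter-Glo luminescence after 5 min.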
Marburg entry inh: inhibitors of Marburg virus binding or cell entry; AID 540276; actives 1.8% (n = 300,000); Potency, µM (series often up to 37.8 µM), for the others: top-dose activity change, negative = inhibition, most hits filed as inhibitors; Marburg virus pseudotyped entry inhibition, cell reporter; control for the full effect not named in the record; about a third of the inactives were read at about 46 µM; active = well fitted inhibition curve with a large enough effect; inconclusive = small, poorly fitted or top-dose-only effect, or effect the other way; inactive = flat fitted curve, though single readings scatter; tested in HEK293 cells; about a fifth of its hits are not listed in these tables; also: % is scaled to controls: 0 for no effect and ±100 for the full control effect; luciferase read-out
Lassa entry inh: inhibitors of Lassa virus binding or cell entry; Lassa virus pseudotype entry inhibition, cell reporter; control for the full effect not named in the record; Potency, µM (highest dose often 37.9 µM), without a hit: top-dose activity change, negative = inhibition, most hits filed as inhibitors; actives 1.2% (n = 300,000); AID 540256; active means well fitted inhibition curve with a large enough effect; inconclusive means small, poorly fitted or top-dose-only effect, or effect the other way; inactive means flat fitted curve, though single readings scatter; tested in HEK293 cells; also: % is scaled to controls: 0 for no effect and ±100 for the full control effect; nearly all actives have a fitted effect of over 50% in size; luciferase read-out
NS1 inh: influenza NS1 inhibition; actives 0.4% (n = 270,000); AID 2326; S. cerevisiae slowed by influenza A NS1, growth recovery by OD600; Potency, µM (top dose mostly 46.1 µM), without a hit: top-dose activity, positive = more growth; active means well fitted rising curve with a large enough effect; inconclusive means small, poorly fitted or top-dose-only effect; inactive means no such curve, though single readings can be large or run the other way; also: nearly all actives have a fitted effect of over 50% in size
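OD600 was taken as the measure of yeast growth restored by compound in an NS1-expressing S. cerevisiae strain. Cells had been washed out of glucose medium and diluted 1:100 into galactose -URA medium, pH 6.0.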
Cruzain inh noDet: inhibitors of Trypanosoma cruzi cruzain without detergent; actives 2.3% (n = 200,000); purified cruzain, Z-FR-AMC fluorescence, no detergent; AID 1476; P25779; Potency, µM, inactives show max response, negative = inhibition, most hits filed as inhibitors;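 also: plate controls were enzyme without inhibitor for no effect and buffer without enzyme for full effect; nearly all actives have a fitted effect of over 40% in size; top concentration of the series not given in the record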
Target sequence (P25779 123-467 limits assumed): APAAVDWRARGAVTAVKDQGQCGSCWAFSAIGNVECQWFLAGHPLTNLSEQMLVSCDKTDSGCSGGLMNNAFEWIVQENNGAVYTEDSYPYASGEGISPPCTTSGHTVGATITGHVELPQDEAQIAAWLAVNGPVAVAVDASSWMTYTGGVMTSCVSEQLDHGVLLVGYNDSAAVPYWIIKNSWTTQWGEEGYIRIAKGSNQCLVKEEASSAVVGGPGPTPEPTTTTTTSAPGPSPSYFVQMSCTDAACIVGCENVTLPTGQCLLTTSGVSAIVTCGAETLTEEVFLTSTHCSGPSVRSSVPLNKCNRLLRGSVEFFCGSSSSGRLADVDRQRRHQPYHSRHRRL
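Detergent-free condition (0.00005% Triton X-100) in acetate buffer pH 5.5 with DTT. 1.5 nM enzyme and compound were pre-mixed 15 min, then 2 uM Z-FR-AMC substrate added; reaction progress from fluorescence change between first and third reads (60 s).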
Cruzain Triton: inhibitors of Trypanosoma cruzi cruzain with detergent | actives 0.43% (n = 200,000) | Potency, µM, without a hit: max response, negative = inhibition, most hits filed as inhibitors | AID 1478 | purified cruzain, Z-FR-AMC fluorescence, 0.01% Triton;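 also: plate controls were neutral wells for no effect and buffer without enzyme for full effect; nearly all actives have a fitted effect of over 40% in size; top concentration of the series not given in the record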
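In this qHTS format, compounds are incubated with 1.5 nM cruzain for 15 min at room temperature before 2 uM Z-FR-AMC is added. Release of AMC is followed at 360/450 nm, and progress is taken as the 60 s fluorescence difference.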
2A StopGo: FMDV 2A StopGo reporter, luciferase signal | human cells with a luciferase reporter of 2A StopGo recoding; control for the full effect not named in the record | Potency, µM (series often up to 57.9 µM), for inactives: at the highest dose signal change, negative = less light | actives 1.2% (n = 410,000) | AID 1159524; active = well fitted falling curve with a large enough effect; inconclusive = small, poorly fitted or top-dose-only effect; inactive = no such curve, though single readings can be large or run the other way; tested in HEK293T cells; also: % is scaled to controls: 0 for no effect and ±100 for the full control effect; nearly all actives have a fitted effect of over 45% in size; luciferase light after 4 h
SARS PLP yeast: blocks SARS-CoV papain-like protease in a yeast assay | S. cerevisiae expressing SARS-CoV PLpro, growth rescue; control for the full effect not named in the record | actives 0.19% (n = 330,000) | Potency, µM (top dose mostly 32.9 µM), for inactives: at the top dose activity, positive = growth rescue; active means well fitted rising curve with a large enough effect; inconclusive means small, poorly fitted or top-dose-only effect; inactive means no such curve, though single readings can be large or run the other way; also: 0% is about no effect; nearly all actives have a fitted effect of over 55% in size; growth read by luminescence after 48 h
Active calls of the source: *; ? = inconclusive; nt = no result given; & = joins results of further samples; [ ] = dose if it differs, or a comment. Unless noted, calls follow the shape of the dose curve; as a rule, active = well fitted curve in the direction sought with a large enough effect; inconclusive = small, poorly fitted or top-dose-only effect, or another doubt; inactive = no such curve, though single readings can be large; an effect the other way counts as inactive or inconclusive. Potency is read from the fitted curve at half-maximal effect.

SMILES	RE007 growth inh	Marburg entry inh	Lassa entry inh	NS1 inh	Cruzain inh noDet	Cruzain Triton	2A StopGo	SARS PLP yeast
COC(=O)c1c(C)nn(-c2ccccc2)c1-n1cccc1	-10.9%	-13.4%[46.1 µM]	?	-5.6%	-18.1%	-2.2%	?	4.2%
COc1ccc(C(CC(=O)c2ccc(C)cc2)C(C#N)C#N)cc1OC (stereo not given)	-19.8%	?	?	-11.7%	3.0%	-9.4%	-3.2%	-8.6%
COc1ccc(Br)cc1/C=N/NC(=O)c1ccco1	9.7%	20.1%[46.1 µM]	0.8%	nt	nt	nt	19.1%	-0.3%
O=c1c2ccccc2nc(/C=C/c2c[nH]c3ccccc23)n1-c1ccc([N+](=O)[O-])cc1	23.4%	?	-8.7%	-1.5%	?	-5.2%	?	12.5%
O=C(C1CCCN(S(=O)(=O)c2cccc3nsnc23)C1)N1CC=C(c2ccccc2)CC1 (stereo not given)	-1.6%	?	?	?	-24.6%	-0.7%	20µM*	-3.2%
Cc1ccccc1NC(=O)C(=O)NNC(=O)COc1ccc2ccccc2c1	-12.8%	2.2%[46.1 µM]	-1.1%[46.1 µM]	-2.4%	nt	nt	29.0%	0.9%
COc1ccc(N2CCN(C(=O)c3cc(S(=O)(=O)N4CCCCCC4)cn3C)CC2)cc1	nt	nt	-22.4%[46.1 µM]	nt	?	-4.1%	-21.0%	nt
O=[N+]([O-])c1ccc(/C=N/Nc2nc(N3CCCCC3)nc(N3CCCCC3)n2)o1	-13.5%	20.6µM*	?	2.1%	0.2%	-7.8%	-29.0%	10.5%
O=[N+]([O-])c1ccc(SCCc2ccncc2)cc1	-28.4%&-36.1%	0.0%&0.0%[14.2 µM]	-0.1%	-1.7%&4.5%	nt	nt	-17.0%&-14.7%	-6.7%&-3.7%
Cc1cc(C)cc(N(C(C)C(=O)NC2CCCC2)S(C)(=O)=O)c1 (stereo not given)	-0.6%	-1.3%	?	3.0%	-10.7%	0.4%	17.1%	-2.3%

Fetched by structure from the list above (five):
SMILES	RE007 growth inh	Marburg entry inh	Lassa entry inh	NS1 inh	Cruzain inh noDet	Cruzain Triton	2A StopGo	SARS PLP yeast
COc1ccc(C(CC(=O)c2ccc(C)cc2)C(C#N)C#N)cc1OC (stereo not given)	-19.8%	?	?	-11.7%	3.0%	-9.4%	-3.2%	-8.6%
COC(=O)c1c(C)nn(-c2ccccc2)c1-n1cccc1	-10.9%	-13.4%[46.1 µM]	?	-5.6%	-18.1%	-2.2%	?	4.2%
COc1ccc(N2CCN(C(=O)c3cc(S(=O)(=O)N4CCCCCC4)cn3C)CC2)cc1	nt	nt	-22.4%[46.1 µM]	nt	?	-4.1%	-21.0%	nt
O=c1c2ccccc2nc(/C=C/c2c[nH]c3ccccc23)n1-c1ccc([N+](=O)[O-])cc1	23.4%	?	-8.7%	-1.5%	?	-5.2%	?	12.5%
O=C(C1CCCN(S(=O)(=O)c2cccc3nsnc23)C1)N1CC=C(c2ccccc2)CC1 (stereo not given)	-1.6%	?	?	?	-24.6%	-0.7%	20µM*	-3.2%

Further structures.
SMILES	RE007 growth inh	Marburg entry inh	Lassa entry inh	NS1 inh	Cruzain inh noDet	Cruzain Triton	2A StopGo	SARS PLP yeast
CCC(=O)c1c[nH]c(C(=O)NCCCn2ccnc2)c1	1.8%	?	8.9%	13.1%	-5.9%	-0.6%	-2.8%	4.5%
CC1(C)CC2CC(C)(CN2C(=O)COC(=O)c2ccc(Cl)c(N)c2)C1 (stereo not given)	10.2%	0.6%	-13.0%	0.9%	-8.2%	-6.7%	-19.4%	-2.5%
CN(C(=O)CSc1nnc(NC2CCCCC2)s1)C1CCS(=O)(=O)C1 (stereo not given)	-10.4%	5.2%	11.6%	-2.7%	-0.6%	-0.2%	-0.1%	1.6%
CCc1cc2c(cc3c(=O)n(CC(=O)NC(C)C)nc(CC)n32)s1	nt	10.8%[46.1 µM]	nt	nt	-8.6%	-2.0%	-6.5%	nt
Cc1cc(Cl)cc(C)c1OCCCCN1CCOCC1	-5.4%	-3.5%	-18.6%	-6.6%	3.4%	-2.8%	-14.6%	-5.8%
O=C(CSc1ncc(-c2ccc(F)cc2)n1Cc1ccco1)Nc1nccs1	51.9%	?	2.9%	3.1%	6.0%	-0.5%	0.0%	1.7%
CCN(CCCNC(=O)CNC(=O)Cn1cnc2ccccc2c1=O)c1cccc(C)c1	19.2%	-3.5%	-7.0%	-4.7%	2.5%	1.8%	-22.7%	-2.1%
CCN(CC)CCCNC(=O)c1cc(-c2ccc(Cl)c(Cl)c2)on1	-14.5%	?	-19.7%	-21.6%	-19.8%	-7.9%	0.1%	-4.7%
Fc1ccc(C2=CC(c3ccco3)n3ncnc3N2)cc1 (stereo not given)	-16.4%	8.8%	8.9%	-3.3%	-6.4%	-6.3%	-17.5%	11.7%
CCOc1ccc(C(=O)OCC(=O)Nc2cccc(S(=O)(=O)N3CCCC3)c2)cc1	10.8%	-19.6%	?	nt	nt	nt	-1.5%	0.7%
CC(C)OC(=O)CSc1ncnc2c1cnn2-c1ccccc1	6.9%	-3.9%	15.9%	-8.8%	0.4%	0.9%	nt	1.4%
CCN(CC)c1ccc(NC(=O)CN2CCN(c3ccc(F)cc3)CC2)cc1	-22.0%	-0.3%	-25.9%	-19.0%	-2.8%	-2.8%	-25.3%	2.5%
CCc1ccc2oc(C(=O)Nc3cccc(Cl)c3C)cc(=O)c2c1	nt	20.1%[46.1 µM]	19.5%[46.1 µM]	nt	-15.6%	-1.2%	1.7%	nt
CC(C)c1ccc2oc(-c3ccc(Cl)c(NC(=O)Cc4ccccc4)c3)nc2c1	nt	?	?	nt	-0.3%	2.5%	?	nt
CC(=O)Nc1ccc2c(c1)CCCC2	-23.2%	nt	nt	-6.2%	nt	nt	14.3%	-2.7%
CCCc1cc(=O)oc2cc(OCC(=O)N(C)C)c(Cl)cc12	-2.9%	9.8%	-0.9%	5.8%	-4.0%	3.9%	-3.8%	1.7%
COc1ccc(S(=O)(=O)N2CCOCC2)cc1C(=O)NC1CCCCC1	-26.0%	?	6.8%	6.4%	nt	nt	0.0%	1.4%
CCn1nc(NC(=O)c2cccnc2)c2cc3ccccc3nc21	-5.1%	?	1.5%	0.9%	-2.1%	-2.5%	?	-4.7%
COC(=O)C1=C(C)NC(C)=C([N+](=O)[O-])C1c1ccccc1C(F)(F)F (stereo not given)	-7.5%[18.4 µM]	?	1.9%&-2.8%	-36.5%&-33.2%	-1.9%&-8.5%	-10.2%&-5.6%	-14.5%	-2.6%
CCN(Cc1ccccc1)S(=O)(=O)c1ccc(C(=O)N(CCCN(C)C)c2nc3cc4c(cc3s2)OCCO4)cc1	30.3%	?	?	nt	nt	nt	?	1.6%
Nc1c(N(CCC2=CCCCC2)C(=O)COc2ccc([N+](=O)[O-])cc2)c(=O)[nH]c(=O)n1Cc1ccccc1	11.0%	?	?	nt	nt	nt	-9.8%	nt
COc1nc(OC)nc(N2CCC(C(=O)NCC3CCCCC3)CC2)n1	2.0%	?	0.6%	1.3%	-9.9%	-5.5%	2.4%	3.5%
CN(C)S(=O)(=O)c1cccc(C(=O)OCC(=O)NCc2ccc3c(c2)OCO3)c1	-15.1%	22.6%[46.1 µM]	24.2%[46.1 µM]	nt	nt	nt	-9.8%	-1.5%
COc1ccccc1CNC(=O)C/C(C)=N/NC(=O)Cc1ccc(OC)c(OC)c1	17.1%	17.2%	-6.1%	11.1%	-13.2%	-0.6%	-22.7%	6.6%
CC1CCN(C(=O)CSc2nnc(-c3cc4ccccc4cc3O)n2Cc2ccco2)CC1	-9.2%	?	-25.3%	0.9%	-4.5%	-3.4%	-8.8%	-6.1%
CC1CCc2[nH]c3ccc(C(=O)N(C)CC(=O)Nc4ccc(F)cc4)cc3c2C1 (stereo not given)	-5.2%	?	-6.2%	10.1%	nt	nt	-2.6%	2.5%
COc1cccc(C(=O)NNC(=O)c2cccnc2)c1	0.1%	8.8%[46.1 µM]	4.9%[46.1 µM]	-1.0%	nt	nt	4.2%	4.2%
CN(C)C=NC(=O)c1cn(-c2ccc(F)cc2)c(=O)c2ccccc12	-4.5%	-1.4%[46.1 µM]	13.9%[46.1 µM]	nt	nt	nt	-14.0%	0.7%
COc1ccc(-n2c(Cc3cccn3C)nnc2SCC(=O)Nc2ccc(C)cc2C)cc1	3.0%	-0.1%&-0.1%	-26.0%	-30.6%	1.0%	-2.5%	-4.4%	13.1%
Cc1nn(-c2ccccc2)c(Cl)c1/C=N/O	7.0%	-2.4%	1.5%	-17.2%	-16.0%	-1.0%	12.0%	-15.4%
COC(=O)C1=C(N)Oc2c(c(=O)oc3ccccc23)[C@]12C(=O)N(C)c1ccccc12	5.1%	-12.0%	18.1%	-32.8%	-1.9%	2.3%	4.7%	4.7%
COc1ccc(CN(C(=O)Nc2cccc(OC)c2)C2CCN(C(C)=O)CC2)cc1	nt	nt	2.3%[46.1 µM]	nt	-4.7%	-1.0%	0.6%	nt
Cc1cccc(N2CCN(C(=O)C3CC(=O)N(C4CCCC4)C3)CC2)c1C (stereo not given)	11.4%	?	-11.7%	17.5%	nt	nt	?	-3.1%
COc1ccc(CNC(=O)C2=Cc3cccc(OC)c3OC2)cc1OC	nt	nt	-14.0%[46.1 µM]	nt	-0.2%	-2.7%	52.3%[activator]	nt
O=C(CCNS(=O)(=O)c1ccc(Cl)cc1)N1CCN(Cc2ccccc2)CC1	16.6%	-3.6%	?	19.9%	-11.8%	-0.5%	-14.5%	4.5%
Cc1csc(SCC(=O)Nc2oc(C)c3c(C)n[nH]c(=O)c23)n1	-2.4%	-3.1%	-4.7%	nt	nt	nt	-17.5%	nt
CCOc1ccc(NC(=O)CC2C(=O)N(c3ccc(OC)cc3)C(=O)N2CCC2=CCCCC2)cc1 (stereo not given)	nt	?	-24.4%[46.1 µM]	nt	14.7%	-8.7%	-6.9%	nt
Cc1ccnc(NCc2c(O)ccc3ccccc23)c1	-29.3%	nt	nt	-10.1%	nt	nt	-8.5%	-5.4%
